Assay outcomes deposited in PubChem by National Center for Advancing Translational Sciences (NCATS).
EPAC1 agonist – human EPAC1 agonism, validation; O95398; EPAC1 Rap1b BODIPY-GDP exchange, fluorescence; Potency, µM, without a hit: max response, positive = active, most hits filed as activators; 16,000 tested, 1% active; AID 1645883; active means well fitted activation curve with a large enough effect; inconclusive means small, poorly fitted or top-dose-only effect; inactive means no such curve, though single readings can be large or run the other way;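 further: nearly all actives have a fitted effect of over 70% in size; series mostly up to about 76 or 150 µM; scaled to a cAMP control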
Target sequence (O95398 whole entry, looked up): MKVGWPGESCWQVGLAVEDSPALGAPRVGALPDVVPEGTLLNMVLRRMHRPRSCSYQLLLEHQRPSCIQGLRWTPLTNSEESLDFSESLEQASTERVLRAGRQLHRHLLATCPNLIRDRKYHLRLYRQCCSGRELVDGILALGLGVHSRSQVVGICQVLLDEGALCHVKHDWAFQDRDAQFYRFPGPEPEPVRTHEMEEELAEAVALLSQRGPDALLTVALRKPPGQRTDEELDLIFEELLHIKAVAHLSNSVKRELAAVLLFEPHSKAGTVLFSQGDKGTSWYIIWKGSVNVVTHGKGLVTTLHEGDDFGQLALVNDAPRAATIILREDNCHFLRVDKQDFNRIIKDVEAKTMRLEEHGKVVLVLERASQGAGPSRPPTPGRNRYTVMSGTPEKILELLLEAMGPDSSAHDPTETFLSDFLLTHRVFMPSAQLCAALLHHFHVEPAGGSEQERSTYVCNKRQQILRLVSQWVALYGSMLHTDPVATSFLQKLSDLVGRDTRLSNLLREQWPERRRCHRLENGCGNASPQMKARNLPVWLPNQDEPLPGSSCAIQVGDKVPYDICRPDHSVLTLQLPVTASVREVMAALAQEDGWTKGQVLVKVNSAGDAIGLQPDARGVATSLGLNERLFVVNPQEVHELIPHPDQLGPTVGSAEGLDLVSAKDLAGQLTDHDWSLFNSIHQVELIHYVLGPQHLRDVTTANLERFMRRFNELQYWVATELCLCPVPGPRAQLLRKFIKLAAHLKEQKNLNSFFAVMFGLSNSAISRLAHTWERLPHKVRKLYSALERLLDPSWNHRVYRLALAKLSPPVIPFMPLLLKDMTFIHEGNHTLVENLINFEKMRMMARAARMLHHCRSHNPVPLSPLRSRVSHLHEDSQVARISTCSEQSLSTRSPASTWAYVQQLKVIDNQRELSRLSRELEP
The depositor's hits bear a star; u = inconclusive; & = joins results of further samples; [ ] = dose if it differs, or a comment. On the % scale 0 is the no-effect control and ±100 the full control effect; potency means the concentration at half of the fitted maximal effect. This is a subset. The share of hits here may be higher or lower than overall.

SMILES	EPAC1 agonist
C#C[C@]1(O)CC[C@H]2[C@@H]3CCC4=Cc5oncc5CC4(C)[C@H]3CCC21C (stereo partly specified)	5%
Cc1cnc(CNc2cc(-c3ccccc3CN(C)C)ncn2)cn1	28%
OC[C@H]1O[C@H](n2cnc3c(N[C@H]4CCC[C@@H]4O)ncnc32)[C@H](O)[C@@H]1O	-1%
Cc1nn(-c2ccccc2)c(C)c1CC(=O)NCC1Cc2cc(F)cc(-c3cccnc3)c2O1 (stereo unspecified)	12%
N#Cc1cccc(-c2ccc3ncnc(NCc4cccs4)c3c2)c1	-32%[inhibitor]
O=C1OC(OC(=O)c2cccnc2Nc2cccc(C(F)(F)F)c2)c2ccccc21 (stereo unspecified)	-5%
CC(C)(C)NCC(O)CSc1nc(-c2ccc(C(N)=O)s2)cs1 (stereo unspecified)	-2%
O=c1c(-c2cccs2)nc2cnc(N3CCNCC3)nc2n1C1CC1	21%
CC(=O)OCC1=C(C(=O)O)N2C(=O)[C@@H](NC(=O)Cc3cccs3)[C@H]2SC1	u
Cc1ccc(C(=O)N(Cc2cc3cc4c(cc3nc2N2CCOCC2)CCC4)CC2CCCO2)s1 (stereo unspecified)	3%
Cc1nc2n(c(=O)c1CCN1CCC(c3noc4cc(F)ccc34)CC1)CCCC2O (stereo unspecified)	4%
CCC(=O)c1c(O)cc(O)cc1O	-8%
c1ccc(CCc2nnc3n2CCN(Cc2ccc4ccccc4n2)CC3)cc1	-6%
CC1OCC23CC[C@@]4(C)CCC(C)(C)C[C@H]4[C@]2(C)CCC12C3CC[C@@]1(C)C2C(=O)CC(=O)[C@@H]1C (stereo partly specified)	-22%
c1ccc(CCNc2nc(-c3ccccc3)cs2)cc1	100µM*
O=c1oc2cc(O)ccc2s1	22%
N#Cc1ccc(/C=C2/C=Cc3ccccc32)cc1	-13%
Cc1ccc(C(=O)Nc2cnn(-c3ccc(C(=O)NCc4nc(-c5ccccc5)n[nH]4)cc3)c2)c(C)c1	24%
Cc1cn(C2OC[C@@H](O)[C@@H]2CO)c(=O)[nH]c1=O (stereo partly specified)	-10%
Cc1nc(NCc2c(C)nn(C)c2Cl)sc1-c1ccn(CC2COc3ccccc3O2)n1 (stereo unspecified)	6%
CCC1CN(CCNC(=O)c2cc(C(C)C)nn2C)Cc2cc(OC)ccc2O1 (stereo unspecified)	-13%
Cc1oc(-c2cccc(NC(=O)c3ccccn3)c2)nc1CNC(=O)c1ccc(C(F)(F)F)cc1	-18%
Nc1ccn([C@@H]2CS[C@H](CO)O2)c(=O)n1	-19%
CCCc1ccc(C(=O)O)cc1	-10%
c1ccc2c(NC3CCNCC3)nc(-c3ccoc3)nc2c1	-38%[inhibitor]
CC(C)Oc1ccc(C(=O)NCC2Cc3cc(Cl)cc(-c4ncccn4)c3O2)cc1 (stereo unspecified)	8%
Oc1cn2c(n1)Nc1ccc(Cl)c(Cl)c1C2	4%&-3%
COc1ccc(-c2nc3cnc(N(C)C)nc3n(Cc3cccs3)c2=O)cc1	-4%
CCCCC(=O)N(Cc1ccc(-c2ccccc2-c2nn[nH]n2)cc1)[C@@H](C(=O)O)C(C)C	-36%[inhibitor]
C=C1C(=O)O[C@@H]2C3OC3(C)CC/C=C(\C)CC[C@@H]12 (stereo partly specified)	3%
N=C(N)SCCc1cnc[nH]1	16%&-5%&1%
O=C(NCC1Cc2cccc(-c3cccnc3)c2O1)c1ccc2cc[nH]c2c1 (stereo unspecified)	u
CN1CCN(c2ncc3nc(-c4cccc(C#N)c4)c(=O)n(CCc4ccccc4)c3n2)CC1	-42%[inhibitor]
CC1CC2C3CCC4=CC(=O)C=C[C@]4(C)[C@@]3(F)[C@@H](O)C[C@]2(C)[C@@]1(O)C(=O)CO (stereo partly specified)	3%
CN(C)CC(C)(O)c1ccc2c(c1)CN(C(=O)c1ccc(-n3cccn3)cc1)CCO2 (stereo unspecified)	6%
CC(=O)O[C@@H]1CC2C(C)(C)C(=O)C=C[C@]2(C)C2CC[C@]3(C)C(=CC[C@H]3C3CO[C@@H](C(C)(C)O)[C@H](O)C3)[C@@]21C (stereo partly specified)	-7%
N=S(=O)(O)Cc1noc2ccccc12	-1%
CC/C(=C\c1ccc(C(=O)OC)cc1)c1cc(OC)cc2oc3ccccc3c12	u
CS(=O)(=O)OCCCCOS(C)(=O)=O	6%&5%
COc1ccccc1CCNc1ncnc2sc(C(=O)N3CCCC3)c(C)c12	6%
Cc1c(C(=O)NCC2CCCN(C)C2)cnn1-c1nccc(-c2ccco2)n1 (stereo unspecified)	-6%
COc1cc(=O)n2c(c1C(=O)NCc1cccc(F)c1)CCN(Cc1cccnc1)CC2	-17%
Cn1c(=O)c2c(ncn2CC(O)CO)n(C)c1=O (stereo unspecified)	-6%&20%
CCN1CCN(c2cc(-c3ccc(F)cc3)c3c(n2)CCCCCC3)CC1	9%
Cc1ccc(C2(O)CCN(CCCC(=O)c3ccc(F)cc3)CC2)cc1	5%
CCCNC(=O)N1N=C(c2ccc(N)cc2)c2cc3c(cc2[C@H]1C)OCO3	-1%
COc1ccccc1CN1CCOc2ccc(CN3CCCCC3CO)cc2C1 (stereo unspecified)	-6%
Clc1ccccc1-c1ccc2ncnc(NCCN3CCOCC3)c2c1	-20%
O=C(c1ccc2c(c1)OCO2)N(Cc1cc2ccc(F)cc2nc1N1CCC(O)CC1)CC1CCCO1 (stereo unspecified)	14%
O=c1[nH]c(=O)n([C@H]2C[C@@H](O)[C@@H](CO)O2)cc1C=CBr	2%
C=CCCN(Cc1ccccc1)S(=O)(=O)c1cc(Br)ccc1Br	-5%
CC/C=C\C/C=C\C/C=C\C/C=C\C/C=C\C/C=C\CCC(=O)O	-8%&-15%&0%
Cc1ncc2c(c1CNS(=O)(=O)c1cccs1)CCN(C(=O)/C=C/c1cc(F)cc(F)c1)C2	14%
Cc1cccc2nc(CNC(=O)CN3Cc4cc(Cl)ccc4OC(C)C3)cn12 (stereo unspecified)	4%
CCc1noc(C)c1C(=O)N1CCOc2ccc(CN3CCCC(C(=O)c4cccnc4)C3)cc2C1 (stereo unspecified)	8%
COc1ccc(C[C@@H](C)NC[C@H](O)c2ccc(O)c(NC=O)c2)cc1	1%
O=C(NC1CCCCC1)NC1CCCCC1	25%
Cc1[nH]ccc2c1[nH]c1cc(=O)ccc12	-84%&3%[inhibitor]
CC(c1ccon1)N(C)C(=O)c1cnn(-c2ncc3c(n2)-c2ccccc2CC3)c1C1CC1 (stereo unspecified)	-5%
CCC1COCCS(=O)(=O)N1Cc1ccc(C)cc1 (stereo unspecified)	1%

Look-ups from the entries so far:
COc1ccccc1CCNc1ncnc2sc(C(=O)N3CCCC3)c(C)c12 | EPAC1 agonist: 6%
CN(C)CC(C)(O)c1ccc2c(c1)CN(C(=O)c1ccc(-n3cccn3)cc1)CCO2 (stereo unspecified) | EPAC1 agonist: 6%

Next section:
SMILES	EPAC1 agonist
Nc1nc2[nH]c(=O)c(=O)[nH]c2c(=O)[nH]1	9%
O=C(Nc1ccc(C(F)(F)F)cc1[N+](=O)[O-])O[C@H]1[C@H](Cc2ccccc2)NS(=O)(=O)[C@H]2C[C@@H]3C=C[C@]12O3	8%
C=CCN1CCCC1CNC(=O)c1cc(S(N)(=O)=O)cc(OC)c1OC (stereo unspecified)	8%
CCN(Cc1ccncc1)C(=O)C(CO)c1ccccc1 (stereo unspecified)	u
C[C@@H](CN1CC(=O)NC(=O)C1)N1CC(=O)NC(=O)C1	5%
CC(=O)N[C@@H](CCC(=O)O)C(=O)O	9%
C[C@@H](O[C@H]1OCCN(Cc2n[nH]c(=O)[nH]2)[C@@H]1c1ccc(F)cc1)c1cc(C(F)(F)F)cc(C(F)(F)F)c1	-60%[inhibitor]
COc1cccc(OC)c1OCCNCC1CSc2ccccc2O1 (stereo unspecified)	-8%
CC1(C)CC(C(=O)N2CCOc3ccc(CN4CCN(Cc5ccccn5)CC4)cc3C2)CCO1 (stereo unspecified)	-10%
COC(=O)C1[C@H]2SC(C)(C)C(C(=O)OC)N2C(=O)N1Cc1ccccc1 (stereo partly specified)	-14%
CO/N=C(\C(=O)N[C@@H]1C(=O)N2C(C(=O)[O-])=C(C[n+]3cccc4c3CCC4)CS[C@H]12)c1csc(N)n1	4%
COc1ccc(OC)c2c(/C=C/c3c[nH]c4ccccc34)ccnc12	-27%

Arranged by length of the SMILES (falling): some entries from above
SMILES	EPAC1 agonist
O=C(Nc1ccc(C(F)(F)F)cc1[N+](=O)[O-])O[C@H]1[C@H](Cc2ccccc2)NS(=O)(=O)[C@H]2C[C@@H]3C=C[C@]12O3	8%
C[C@@H](O[C@H]1OCCN(Cc2n[nH]c(=O)[nH]2)[C@@H]1c1ccc(F)cc1)c1cc(C(F)(F)F)cc(C(F)(F)F)c1	-60%[inhibitor]
CC(c1ccon1)N(C)C(=O)c1cnn(-c2ncc3c(n2)-c2ccccc2CC3)c1C1CC1 (stereo unspecified)	-5%
CC1(C)CC(C(=O)N2CCOc3ccc(CN4CCN(Cc5ccccn5)CC4)cc3C2)CCO1 (stereo unspecified)	-10%
COC(=O)C1[C@H]2SC(C)(C)C(C(=O)OC)N2C(=O)N1Cc1ccccc1 (stereo partly specified)	-14%
C=CCN1CCCC1CNC(=O)c1cc(S(N)(=O)=O)cc(OC)c1OC (stereo unspecified)	8%
COc1ccc(OC)c2c(/C=C/c3c[nH]c4ccccc34)ccnc12	-27%
Nc1nc2[nH]c(=O)c(=O)[nH]c2c(=O)[nH]1	9%
COc1cccc(OC)c1OCCNCC1CSc2ccccc2O1 (stereo unspecified)	-8%
CCN(Cc1ccncc1)C(=O)C(CO)c1ccccc1 (stereo unspecified)	u
CCC1COCCS(=O)(=O)N1Cc1ccc(C)cc1 (stereo unspecified)	1%
Cc1[nH]ccc2c1[nH]c1cc(=O)ccc12	-84%&3%[inhibitor]
CC(=O)N[C@@H](CCC(=O)O)C(=O)O	9%
O=C(NC1CCCCC1)NC1CCCCC1	25%

Remaining list, next part:
SMILES	EPAC1 agonist
OC[C@H]1O[C@@H](O[C@H]2[C@H](O)[C@@H](O)[C@H](O)O[C@@H]2CO)[C@H](O)[C@@H](O)[C@@H]1O	-12%
COCC(=O)N1CCC2(CC1)CCN(c1ccncc1)CC2	-45%[inhibitor]
O=S(O)CNc1ccc(S(=O)(=O)c2ccc(NCS(=O)O)cc2)cc1	-9%
O=Nc1c(-c2c(O)[nH]c3cc(Br)ccc23)[nH]c2ccccc12	1%
O=C(N[C@@H]1c2ccccc2C2(CCN(C(=O)c3ccc4c(c3)OCCO4)CC2)[C@H]1O)c1cccnc1	-7%
N#C/C(=C\c1ccc(O)c(O)c1)C(=O)NCCCc1ccccc1	2%&4%
Fc1cccc(/C=N\N=C/c2cccc(F)c2)c1	-1%
Cc1c(C(=O)NCCc2cccnc2)cnn1-c1ncc2c(n1)-c1ccccc1CC2	-11%
CSc1nnc(CNC(=O)c2c(-c3ccccc3)noc2C)n1-c1ccc(F)cc1	-7%
CN1CCN(c2nc(-c3cccc(C#N)c3)nc3ccccc23)CC1	-48%
COc1ccc(CN2CCC(n3cc(C(=O)N4CCCCC4)nn3)CC2)c(OC)c1	5%
CCCCCC(=O)Cc1cc(O)cc(O)c1C(=O)Oc1cc(CC(=O)CCCCC)c(C(=O)O)c(OC)c1	-27%
O=C(c1cccnc1)C1CCCN(Cc2ccc3c(c2)CN(C(=O)c2cnccn2)CCO3)C1 (stereo unspecified)	-14%
N#C/C(=C1/SC[C@@H](c2ccc(Cl)cc2Cl)S1)n1ccnc1	4%&9%&27%
Cc1ccc2c(c1)CN(C(=O)CC(c1ccccc1)c1ccco1)CC(C)O2 (stereo unspecified)	-2%
Nc1ncnc2c1ncn2[C@@H]1O[C@H](C(=O)NC2CC2)[C@@H](O)[C@H]1O	-12%
COc1cccc(Cn2c(=O)c(-c3cccc(C#N)c3)nc3cnc(OC)nc32)c1	-5%
O=C1c2ccccc2S(=O)(=O)N1CCCCN1CCN(c2ncccn2)CC1	-4%
Cc1noc(C)c1-c1nccc(Nc2ccc(F)cc2)n1	-3%
O=C(c1ccco1)N1CCC2(CC1)CN(c1cccc(-c3ccccc3)c1)C2	100µM*
CCn1c(=O)[nH]c2ccccc21	7%
O=C(NC1CCCC1)c1cn(C2CCN(Cc3cccc4cccnc34)CC2)nn1	3%
COc1cccc(Nc2ncc3nc(CCc4ccccc4)c(=O)n(C4CC4)c3n2)c1	-42%[inhibitor]
Cc1c(C(=O)N2CCCC(c3ccccc3)C2)sc2ncnc(NCCc3ccccn3)c12 (stereo unspecified)	3%
CN1CCc2cccc3c2[C@H]1Cc1ccc(O)c(O)c1-3	-7%&-1%
O=C(CCCN1CCN(c2ccccn2)CC1)c1ccc(F)cc1	-8%&-13%
CC(=O)O[C@H]1C(=O)[C@@]2(C)[C@H]([C@H](OC(=O)c3ccccc3)[C@]3(O)C[C@H](OC(=O)[C@H](O)[C@@H](NC(=O)c4ccccc4)c4ccccc4)C(C)=C1C3(C)C)[C@]1(OC(C)=O)CO[C@@H]1C[C@@H]2O	13%&-6%
CCc1oc2ccccc2c1C(=O)c1cc(I)c(O)c(I)c1	-36%[inhibitor]
CN(Cc1cccc2ncccc12)C(=O)c1cnn(-c2nccc(-c3ccccc3F)n2)c1C1CC1	-28%
COCc1ccc(CN2CCOc3c(cc(-c4ccc(SC)cc4)cc3OC)C2)o1	9%
NCC1CCC(C(=O)Oc2ccc(CCC(=O)O)cc2)CC1 (stereo unspecified)	-13%
N#Cc1ccc(CN2CCCC3(CCN(C(=O)c4cc(C(F)(F)F)cc(C(F)(F)F)c4)CC3)C2)cc1	-37%[inhibitor]
COc1cccc(Cn2c(=O)c(C)nc3cnc(N4CCNCC4)nc32)c1	41%
c1ccc(-c2ccccn2)nc1	19%
COC(=O)[C@H]1C(OC)[C@@H](OC(=O)c2cc(OC)c(OC)c(OC)c2)C[C@@H]2CN3CCc4c([nH]c5cc(OC)ccc45)[C@H]3C[C@H]21 (stereo partly specified)	u
COCc1c(C(=O)N2CCN(C)CC2)cnn1-c1ncc2c(n1)-c1ccccc1CCC2	-7%
O=S(=O)(c1ccccc1)N1CCC2(CC1)CN(c1ncccn1)C2	u
